Bioassay records (PubChem BioAssay)
GCN5L2 inh: qHTS Assay for Inhibitors of GCN5L2; Histone acetyltransferase KAT2A (Homo sapiens), Q92830; GCN5L2 HAT assay, ThioGlo1 CoA-SH fluorescence; Potency, µM (titrated, usually from 58.9 µM), inactives show at the top dose activity change, negative = inhibition, most hits filed as inhibitors; hit rate 0.21% among 390,000; AID 504327, 2011; active means well fitted inhibition curve with a large enough effect; inconclusive means small, poorly fitted or top-dose-only effect, or another doubt; inactive means no such curve, though single readings can be large or run the other way
Target sequence (Q92830 whole entry, looked up): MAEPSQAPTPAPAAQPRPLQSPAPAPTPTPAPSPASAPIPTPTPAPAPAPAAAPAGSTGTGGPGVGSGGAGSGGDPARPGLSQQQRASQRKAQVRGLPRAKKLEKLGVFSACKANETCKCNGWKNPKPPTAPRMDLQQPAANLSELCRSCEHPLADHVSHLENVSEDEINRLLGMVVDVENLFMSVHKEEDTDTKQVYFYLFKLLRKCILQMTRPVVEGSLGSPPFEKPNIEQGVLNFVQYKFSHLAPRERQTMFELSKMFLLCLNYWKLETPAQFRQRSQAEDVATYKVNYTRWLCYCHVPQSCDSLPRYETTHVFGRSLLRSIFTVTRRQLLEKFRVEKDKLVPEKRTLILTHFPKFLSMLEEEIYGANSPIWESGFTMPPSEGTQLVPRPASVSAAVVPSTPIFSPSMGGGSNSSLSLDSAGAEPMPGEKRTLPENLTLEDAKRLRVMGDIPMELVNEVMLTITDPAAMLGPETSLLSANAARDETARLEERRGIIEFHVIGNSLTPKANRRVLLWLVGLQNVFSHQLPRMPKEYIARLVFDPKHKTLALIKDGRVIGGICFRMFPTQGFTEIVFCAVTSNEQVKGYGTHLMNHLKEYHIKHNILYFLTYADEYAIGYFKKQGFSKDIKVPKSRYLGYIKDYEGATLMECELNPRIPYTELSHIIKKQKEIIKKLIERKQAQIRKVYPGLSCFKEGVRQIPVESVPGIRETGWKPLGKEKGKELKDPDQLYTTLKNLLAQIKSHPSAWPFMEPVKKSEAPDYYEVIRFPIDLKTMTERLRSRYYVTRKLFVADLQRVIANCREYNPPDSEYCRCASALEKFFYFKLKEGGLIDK
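ThioGlo1-coupled HAT assay: 20nM GCN5L2, 70uM acetyl-CoA, 75uM H3(1-25) peptide, pH 7.5. Fluorescence read at 340/540nm at start and after 20 min at room temperature.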
The depositor's hits bear a star; ? = inconclusive; & = joins results of further samples; [ ] = dose if it differs, or a comment. On the % scale 0 is the no-effect control and ±100 the full control effect; potency means the concentration at half of the fitted maximal effect. The list is partial; most or all hits stand in other tables.

| SMILES | GCN5L2 inh |
| --- | --- |
| COC(=O)c1cccc(NS(C)(=O)=O)c1 | -1.9% |
| CC(OC(=O)CNS(=O)(=O)c1ccc2ccccc2c1)C(=O)N(C)c1ccccc1 (configuration not stated) | 12.1% |
| COc1ccc(CCNC(=O)CCNC(=O)c2ccco2)cc1OC | 1.3% |
| O=C(CC1C(=O)NCCN1C(=S)Nc1ccccc1)Nc1ccc2c(c1)OCCO2 (configuration not stated) | -5.1% |
| COc1ccc(-c2csc(NC(=O)C3CC(=O)N(c4ccc5c(c4)OCCO5)C3)n2)cc1 (configuration not stated) | -22.0% |
| CC(C)Nc1nc(Oc2ccc(=O)n(-c3ccccc3)n2)nc(N(C)C)n1 | -4.3% |
| N#Cc1cc2c(nc1SC1CC(=O)N(c3ccccc3)C1=O)CCC2 (configuration not stated) | -0.5% |
| CCOC(=O)c1cnc2c(C#N)cnn2c1N | -5.9% |
| Cc1ccc(SCCC(=O)NC(C)(C)C)cc1 | -1.5% |
| Cc1nn2c(-c3cccc(NC(=O)c4ccc(Cl)cc4)c3)nnc2c2ccccc12 | -9.8% |
| CCCCn1c(SCC(=O)OCC)nnc1-c1ccoc1C | -5.9% |
| O=C(Nc1ccccc1-c1ccccc1)c1ccco1 | 1.9% |
| CCC1Nc2ncnc(N3CCCCC3)c2N(Cc2ccc(OC)cc2)C1=O (configuration not stated) | -2.0% |
| COc1cc(S(=O)(=O)NCC2OCCc3ccccc32)ccc1-n1cnnn1 (configuration not stated) | -4.8% |
| NC(=O)c1ccccc1 | -2.7%&0.5% |
| O=C(Nc1ccc2c(c1)OCCO2)C1CCN(S(=O)(=O)c2ccc(Br)s2)CC1 | -7.6% |
| COc1ccc(-c2nn(-c3ccccc3)cc2C(=O)N2CCN(S(=O)(=O)c3ccccc3C#N)CC2)cc1 | -12.5% |
| c1ccc(-n2nc3ccccc3n2)cc1 | 2.2% |
| O=C1COc2ccc(C(=O)COC(=O)c3ccc(S(=O)(=O)C(F)F)cc3)cc2N1 | -1.5% |
| COc1ccc2nc(NCc3cccnc3)sc2c1 | -15.0% |
| CC(=O)Nc1ccc(S(=O)(=O)Nc2ccccc2C(=O)N2CCCCC2)cc1 | -10.6% |
| Cc1[nH]c2ccc(F)cc2c1CCN(Cc1ccncc1)C(=S)Nc1cccc(F)c1 | -12.3% |
| CC(C)(C)OC(=O)N1CCN(C(=O)Cn2cc(CCO)nn2)CC1 | -2.3% |
| O=c1c2ccccc2nc2n1C(CSc1ccccc1)CS2 (configuration not stated) | -12.1% |
| C=CCn1c(Cc2cccs2)nnc1SCC(=O)NCc1ccco1 | ? |
| Cc1cc(/C=N/NC(N)=O)c(C)n1-c1ccc(F)cc1 | -2.9% |
| Cc1cccc(N2C(=O)C(O)=C(C(=O)c3cccs3)C2c2ccc(C(C)C)cc2)n1 (configuration not stated) | -6.1% |
| CC(C)[C@H](Nc1ccc(S(=O)(=O)N2CCOCC2)cc1[N+](=O)[O-])C(=O)OCC(=O)N(C(C)C)C(C)C | -8.7% |
| CCc1c(C(=O)N/N=C/c2ccc(C)o2)csc1C | 2.7% |
| Cc1cccc(OCC(=O)NNC(=O)c2ccc3nc[nH]c3c2)c1 | -9.6% |
| CNCC(O)c1ccc(O)c(O)c1 (configuration not stated) | 1.9%&3.3% |
| CS(=O)(=O)c1nc(S(=O)(=O)c2ccc(Cl)cc2)c(N2CCC(O)CC2)s1 | -11.3% |
| CC(C)n1cc(/C=C2/NC(=O)NC2=O)c2ccccc21 | -7.0% |
| NS(=O)(=O)c1ccc(N/N=C/c2cn(-c3ccccc3)nc2-c2cccs2)c([N+](=O)[O-])c1 | -0.4% |
| COC(=O)c1cc(OC)c(OC)cc1NC(=O)CCC1CCCC1 | -7.0% |
| COc1ccc(CCn2c3c(c(=O)[nH]c2=O)C(NC(=O)c2ccc(C(C)(C)C)cc2)(C(F)(F)F)C(=O)N3)cc1OC (configuration not stated) | -11.8% |
| CCOC(=O)c1[nH]c2ccc(OC)cc2c1NC(=O)CCN1CCc2ccccc2C1 | -3.1% |
| CCOC(=O)N1CCC(NC2CCCCCCC2)CC1 | -5.6% |
| CCc1ccc2c(COn3nnc4ccc(S(=O)(=O)N(C)C)cc43)cc(=O)oc2c1 | -3.6% |
| CCCCCn1c(CN(C)Cc2ccccc2)nc2c1c(=O)n(C)c(=O)n2C | -4.3% |
| C/C(=N\NC(=O)c1c(Cl)c(C)nn1C)c1ccc(NC(=O)COc2ccc(Cl)cc2C)cc1 | -1.7% |
| Cc1ccc(NC(=O)c2ccc(S(=O)(=O)Nc3c(C)n(C)n(-c4ccccc4)c3=O)cc2)nc1 | 1.8% |
| O=C(Nc1ccccc1N1CCCC1)c1cccnc1 | -1.0% |
| CCn1c(C)nc2cc(-c3nnc(-c4c(-c5ccccc5)noc4C)o3)ccc21 | -3.7% |
| O=C(O/N=C/c1cccc([N+](=O)[O-])c1)C1CC1 | -3.8% |
| O=C(Nc1ccc(F)cc1)NC1CCN(Cc2ccccc2)CC1 | -5.8% |
| Cc1cccc(CC2SC(N3CCN(c4ccccc4)CC3)=NC2=O)c1 (configuration not stated) | -6.2% |
| O=C(NCc1ccco1)c1ccc(Cn2c(=O)c3ccccc3n(Cc3cccc(Cl)c3)c2=O)cc1 | -19.6% |
| Cc1cc(C)n(-c2ncc3c(n2)N(C)CCOC3=O)n1 | 1.5% |
| CC1=C(C(N)=O)C(c2ccc(Cl)cc2Cl)n2ncnc2N1 (configuration not stated) | -12.2% |
| CCN(CC)CCNC(=O)C(C(=O)c1ccccc1)n1ccccc1=O (configuration not stated) | -4.7% |
| Cc1cc(NC(=O)c2noc3c2CCc2ccccc2-3)no1 | -6.4% |
| CC(NC(=O)COC(=O)c1cccs1)c1ccccc1 (configuration not stated) | -0.5% |
| CN(C(=O)COC(=O)CNC(=O)c1cccs1)c1c(N)n(Cc2ccccc2)c(=O)[nH]c1=O | 1.4% |
| O=C(O)Cc1ccc(NC(=S)NCc2ccco2)cc1 | -1.8% |
| COC(=O)C1CCN(C2CC(=O)N(c3cc(C)cc(C)c3)C2=O)CC1 (configuration not stated) | -5.2% |

Next section:
| SMILES | GCN5L2 inh |
| --- | --- |
| O=C(O)c1cccc(NS(=O)(=O)c2ccc(Cl)c(C(=O)O)c2)c1 | -0.8% |
| O=C(NC1CCCCC1)c1ccc(OC2CCN(Cc3ccccn3)CC2)cc1 | -32.7% |
| COC(=O)CCCC(=O)N1CCC(CCC(=O)NC2CC2)CC1 | 1.6% |
| O=C(/C=C/c1ncc(C(F)(F)F)cc1Cl)OCc1ccccc1 | 1.0% |
| CO[C@]1(NC(=O)Cc2cccs2)C(=O)N2C(C(=O)O)=C(COC(N)=O)CS[C@H]21 | -0.1%[21.4 µM] |
| CN1CCN(CCC=C2c3ccccc3Sc3ccc(S(=O)(=O)N(C)C)cc32)CC1 | -3.6% |
| CCOC(=O)NC(NS(=O)(=O)c1ccccc1)(C(=O)OCC)C(F)(F)F (configuration not stated) | -5.0% |
| Cc1nn(CCS(=O)(=O)c2ccc(Cl)cc2)c(C)c1Br | -5.5% |
| O=S(=O)(c1cccc2cccnc12)N1CCCCC1 | -6.7% |
| OCC1(CC2CCCCO2)CCN(Cc2nc3ccccc3[nH]2)CC1 (configuration not stated) | -12.4% |
| O=C(NS(=O)(=O)c1ccc(Cl)cc1)c1ccccc1 | -1.1% |
| COc1ccc(CN2C(=O)NC3(CCCc4ccccc43)C2=O)cc1F (configuration not stated) | -18.4% |
| c1ccc(N2CCN(c3ncnc4c3nc3n4CCCCC3)CC2)cc1 | -4.0% |
| COc1ccc(NC(=O)Cn2c(SCc3cc(C)ccc3C)nc3ccncc32)c(OC)c1OC | -11.0% |
| O=C(NCc1nc2ccccc2[nH]1)C1=C[C@@H](C2CC2)C[C@@H](OCc2ccc(CO)cc2)O1 | -4.5% |
| O=S(=O)(c1ccc(Cl)nc1)N1CCCCC1 | -2.6% |
| Cc1ccc(C(=O)c2sc3nc4c(cc3c2N)CCC4)cc1 | 2.1% |
| CCCNC(=O)c1ccccc1NS(=O)(=O)c1ccc2c(c1)OCCO2 | -1.4% |
| Nc1ccccc1OCCOCCOc1ccccc1N | ? |
| CC(Oc1ccccc1F)C(=O)NCCN1CCCCC1 (configuration not stated) | -4.0% |
| Cc1ccc(C(=O)NC(=S)Nn2cnnc2)cc1 | -4.5% |
| Cc1ccc(NC(=O)C(=O)Nc2ccccn2)cc1 | -1.3% |
| CNCc1c(OCc2ccc(F)cc2)ccc2ccccc12 | -5.0% |
| O=S(=O)(NCCCN1CCOCC1)c1ccc2c(c1)OCCO2 | 0.0% |

4 compounds from above, sorted by number of heavy atoms, ascending:
| SMILES | GCN5L2 inh |
| --- | --- |
| Cc1ccc(C(=O)NC(=S)Nn2cnnc2)cc1 | -4.5% |
| Cc1ccc(NC(=O)C(=O)Nc2ccccn2)cc1 | -1.3% |
| O=S(=O)(NCCCN1CCOCC1)c1ccc2c(c1)OCCO2 | 0.0% |
| CCCNC(=O)c1ccccc1NS(=O)(=O)c1ccc2c(c1)OCCO2 | -1.4% |

(list continues)
| SMILES | GCN5L2 inh |
| --- | --- |
| Cc1ccc(C(=O)OCC(=O)N(C)c2c(N)n(Cc3ccccc3)c(=O)[nH]c2=O)s1 | -7.6% |
| CCOC(=O)C1CCCN(C(=O)c2cccc(S(=O)(=O)N(C)c3ccc(C)cc3)c2)C1 (configuration not stated) | 1.6% |
| O=C(CN1CCOCC1)NN1CC(=O)N(c2ccc(Cl)cc2)CC1=O | -3.2% |
| OCCNC(=S)NCCc1ccccc1 | 0.9% |
| CC1CCN(c2nc(CN3CCCCC3)nc3scc(-c4ccccc4)c23)CC1 | 1.7% |
| CCOC(=O)c1c(C)[nH]c(C(=O)OCC(=O)N(CC(C)C)C2CCS(=O)(=O)C2)c1C (configuration not stated) | -3.8% |
| Cc1ccc(NS(=O)(=O)c2ccc3c(c2)NC(=O)CCS3)cc1C | -8.5%&25.1% |
| Fc1ccc(N2CCN(Cc3cn[nH]c3-c3ccccc3)CC2)cc1 | -3.0% |
| CCN(CC)Cc1cc(CCNC(=O)c2ccc(Cl)cc2)ccc1O | 1.2% |
| O=C(NC1CCCCC1)C(c1ccc2ncccc2c1)N(Cc1ccc(F)cc1)C(=O)c1ccc2c(c1)OCCO2 (configuration not stated) | -17.5% |
| O=C(O/N=C\c1ccc(N2CCCCC2)c([N+](=O)[O-])c1)c1cccc(C(F)(F)F)c1 | -16.3% |
| CN1CCN(C(=O)c2ccc3c(c2)OCCO3)CC1 | -1.7% |
| CC(=O)c1cccc(NC(=O)C2CCCC2)c1 | -0.7% |
| O=C(c1ccc(OC2CCN(C(=O)c3cccnc3)CC2)cc1)N1CCCCCC1 | -0.5% |
| O=C(COC(=O)C12CC3CC(CC(C3)C1)C2)Nc1ncc(Cl)cc1Cl | 3.6% |
| COC(=O)C(NC(=O)C(CC(C)C)NC(=O)C1CCC(C)CC1)C(C)C (configuration not stated) | -1.2% |
| Cc1nc(N)ncc1Sc1ccccc1 | -2.5% |
| Oc1ccccc1CNCc1ccccc1 | -5.1% |
| Cc1cc(C)c(S(=O)(=O)Nc2cccc(/C=C/C(=O)O)c2)c(C)c1 | -0.7% |
| CCCCOC(=O)c1ccc(NC(=O)Cn2nnc3sc4c(c3c2=O)CCCC4)cc1 | -11.5% |
| CN(C)c1ccc(/C=N/NC(=O)CCC(=O)NCc2ccccc2)cc1 | -4.0% |
| O=C(CCc1nc2ccccc2c(=O)[nH]1)OCc1cccc(C(F)(F)F)c1 | -0.8% |
| CC(=O)NC12CC3CC(C1)CC(C(=O)NCc1ccc(C)cc1)(C3)C2 | -4.6% |
| CSC(=NC#N)N1CCN(c2ccccn2)CC1 | 5.0% |
| O=C(NC1CCCCCC1)C1c2ccccc2C(=O)N1Cc1cccnc1 (configuration not stated) | -0.6% |
| C=CC(C)(C)O[C@@H]1O[C@H](CO)[C@@H](O)[C@H](O)[C@H]1O | 4.5% |
| CN(CC(=O)Nc1ccccc1Cl)C(=O)COC(=O)c1cnccn1 | -1.5% |
| CCCOc1ccc(OC(=O)c2ccc(Br)o2)cc1 | -3.6% |
| CCOC(=O)N1CCN(S(=O)(=O)N2CCCC(C(=O)NCc3ccccc3Cl)C2)CC1 (configuration not stated) | -0.2% |
| CC(=O)OCC(=O)[C@@]1(O)[C@H](C)C[C@H]2[C@@H]3CCC4=CC(=O)C=C[C@]4(C)[C@@]3(F)[C@@H](O)C[C@@]21C | -6.6% |
| CN(CC(=O)NCCCc1ccccc1)S(=O)(=O)c1ccc(Br)cc1 | -12.3% |
| Cc1ccsc1-c1n[nH]c(=S)n1CC(C)C | -4.7% |
| O=C(O)CCCc1ccccc1 | -3.0%&-14.9% |
| O=C(O)C1C2C=CC(C2)C1C(=O)NCCCN1CCOCC1 (configuration not stated) | -2.0% |
| CC(C(=O)NC(C)(C)C)N1C(=O)c2cccc3cccc(c23)C1=O (configuration not stated) | -2.5% |
| O=C(NCc1cn2ccccc2n1)c1ccc(Br)o1 | -6.1% |
| CCCn1c(=O)c(C(=O)NNC(=O)c2ccccc2Cl)c(O)c2ccccc21 | 0.1% |
| C=CCn1c(N)cc(=O)nc1SCC(=O)N(c1ccccc1)c1ccccc1 | 3.0% |
| O=C(CSc1ncnc2ccccc12)c1cccs1 | -9.0% |
| CCOC(=O)N1CCC(n2c(SCC(=O)NCCC3=CCCCC3)nc3ccccc3c2=O)CC1 | -9.1% |
| CCn1ncc(C2=NOC(C(=O)Nc3ccc(C)cc3)C2)c1C (configuration not stated) | 0.2% |
| O=C(C1CCN(c2nc3ccccc3[nH]2)CC1)N1CCN(c2cccc(Cl)c2)CC1 | -7.2% |
| CCC(Sc1ccc2nnc(CCNS(=O)(=O)c3ccc(OC)cc3)n2n1)C(=O)OC (configuration not stated) | -6.0%&-1.0% |
| COc1ccc(Br)cc1CNC(=O)CN1C(=O)C(c2ccccc2)Oc2cccnc21 (configuration not stated) | -16.2% |
| Cc1ccc(C)c(NC(=O)Cc2coc3cc(C)cc(C)c23)c1 | -4.0% |
